Screening data deposited in PubChem by Johns Hopkins Ion Channel Center.
KCNQ2 block: KCNQ2 channel blockers in CHO-K1 cells – cell-based, FluxOR thallium flux, B-score, primary screen (AID 2156). O88943. 20 min; active compounds read low; only compounds with negative scores are shown here; some inactives read as strong as hits. B-score at 10 µM. 310,000 compounds, 1.1% hits;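 active = fluorescence ratio B-score at most minus 3 library SDs, with starting brightness B-score within 2 library SDs, cut at about -5.5 in these data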
Target sequence (O88943 whole entry, looked up): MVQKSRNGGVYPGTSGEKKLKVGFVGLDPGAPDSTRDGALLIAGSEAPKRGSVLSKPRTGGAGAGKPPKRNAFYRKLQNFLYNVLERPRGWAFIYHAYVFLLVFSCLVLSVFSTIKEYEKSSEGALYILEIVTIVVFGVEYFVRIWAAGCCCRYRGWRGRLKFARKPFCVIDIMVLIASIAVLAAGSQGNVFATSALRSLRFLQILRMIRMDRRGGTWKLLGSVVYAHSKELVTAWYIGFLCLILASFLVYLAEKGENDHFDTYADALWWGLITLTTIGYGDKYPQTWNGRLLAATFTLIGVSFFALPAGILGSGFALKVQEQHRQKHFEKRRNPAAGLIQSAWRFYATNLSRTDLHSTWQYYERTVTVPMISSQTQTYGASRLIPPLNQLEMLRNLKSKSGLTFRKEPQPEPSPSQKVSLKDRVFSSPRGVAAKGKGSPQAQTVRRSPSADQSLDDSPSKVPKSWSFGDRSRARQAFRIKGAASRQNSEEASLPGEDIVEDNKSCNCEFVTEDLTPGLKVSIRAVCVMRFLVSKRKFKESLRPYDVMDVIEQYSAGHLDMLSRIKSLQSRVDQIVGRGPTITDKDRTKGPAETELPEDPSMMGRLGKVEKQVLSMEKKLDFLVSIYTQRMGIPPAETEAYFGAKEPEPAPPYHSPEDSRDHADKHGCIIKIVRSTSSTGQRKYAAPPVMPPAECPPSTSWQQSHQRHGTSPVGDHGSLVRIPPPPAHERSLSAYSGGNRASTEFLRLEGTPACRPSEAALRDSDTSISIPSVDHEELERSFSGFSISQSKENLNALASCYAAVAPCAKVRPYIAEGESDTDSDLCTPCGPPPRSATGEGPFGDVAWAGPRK
KCNQ2 block baseline: second read-out of KCNQ2 block, no call of its own (marks repeat the call); B-score; measured here: initial fluorescence intensity artifact check;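 brightness before thallium and not channel activity; 0 = typical well and far values either way flag optical interference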
Numbers without * were called inactive; i = inactive; & = joins results of further samples.

smiles	KCNQ2 block	KCNQ2 block baseline
CCc1ccc(C2CC(c3ccc(C)cc3)Nc3nc(N)nn32)cc1 (configuration not stated)	i	3.18
CCOC(=O)N1CCN(Cc2cc(=O)oc3cc4c(cc23)CCC4)CC1	i	-0.02
COc1cccc(CNC(=O)c2cc(S(=O)(=O)N3CCCC3)cn2C)c1	i	-0.62
O=C(c1ccc(Br)cc1)N1CCN(Cc2ccccc2)CC1	i	-0.01
O=C(c1ccc(Br)s1)N1CCN(S(=O)(=O)c2ccccc2)CC1	i	-0.03
COc1ccc(CN(C(C)=O)c2ccccc2C(=O)O)cc1	i	0.8
O=C(O)C1CCN(S(=O)(=O)c2cccs2)CC1	i	-0.11
COc1ccc(OC)c(-c2cc(C(=O)N3CCN(c4ncccn4)CC3)c3ccccc3n2)c1	i	-0.26
CC(=O)Nc1ccc(OCC(=O)NC(C)C(C)C)cc1 (configuration not stated)	i	0.45
N#CCCN(Cc1cccnc1)C(=O)c1sc2cc(F)ccc2c1Cl	i	0.28
COc1ccc(NC(=O)CN2CCN(S(=O)(=O)c3ccc(Cl)cc3)CC2)cc1	i	1.57
COc1ccccc1CNC(=O)CNCC1CCCO1 (configuration not stated)	i	0.07
O=C(CCc1nnc(C2CCCCC2)o1)NCc1ccc(F)c(F)c1	i	0.23
O=C(O)c1ccc(Cl)c(S(=O)(=O)N(Cc2ccccc2)c2ccccc2)c1	i	-1.58
C=CCc1c(C)nc(SCc2nc3ccccc3c(=O)[nH]2)[nH]c1=O	i	-0.22
CCC(=O)Nc1ccccc1N1CCN(S(C)(=O)=O)CC1	i	0.18
CCC1CCCCN1C(=O)c1ccc(OC2CCN(Cc3ccccn3)CC2)cc1 (configuration not stated)	i	1.2
Cc1ccc(NC(=O)CC2(CC(=O)O)CCCC2)cc1	i	-1.03
COC(=O)c1ccc(NC(=O)CN2CCN(c3ccc(Cl)cc3)CC2)cc1	i	0.23
COc1ccc(C(=O)Nc2ccc3cn[nH]c3c2)c(OC)c1	i	-0.69
COc1ccc(N2CCN(S(=O)(=O)c3c(C)n(C)c(=O)n(C)c3=O)CC2)cc1	i	-0.07
O=C(c1ccccc1-c1ncc[nH]1)N1CCc2c([nH]c3ccccc23)C1c1ccccn1 (configuration not stated)	i	3.64
CC(NCc1ccc(S(N)(=O)=O)cc1)C(=O)N1CCc2ccccc21 (configuration not stated)	i	0.03
O=C(N/N=C/c1cc(Br)c(O)c(Br)c1)c1cccnc1	i	1.24
COc1ccccc1CNC(=O)CN1C(=O)NC(C)(c2ccc(C(C)(C)C)cc2)C1=O (configuration not stated)	i	1.11
CNC(=O)c1ccccc1F	i	1.23
CC(C)Oc1ccc2ccccc2c1C=O	i	0.04
CCn1c(COc2ccc(Cl)cc2)nnc1SCC(=O)Nc1ccc2c(c1)OCO2	i	1.06
COc1ccc2oc(C(=O)N3CCN(C(c4ccccc4)c4ccccc4)CC3)c(C)c2c1	-10.5*	-2.17*
CC1(C)C(=O)N(c2ccccc2Cl)C(=O)c2ccccc21	i	0.58
COC(=O)c1ccc(NC(=O)c2cccc(OC)c2)cc1	i	1.39
O=C(NNS(=O)(=O)c1ccc(F)cc1)c1ccc([N+](=O)[O-])cc1	i	1.8
COc1ccc(C(=O)Nc2ccc3c(c2)C(=O)NC3=O)cc1	i	-0.67
NC(=O)C1CCN(C(=O)Cc2ccsc2)CC1	i	0.22
O=C(NCCCN1CCCC1=O)c1ccc(S(=O)(=O)Nc2ccccc2)cc1	i	-0.71
O=C(COC(=O)CCNS(=O)(=O)c1cccc(C(F)(F)F)c1)NC(=O)NC1CCCCC1	i	-1.94
Cc1cc(S(=O)(=O)N2CCCC(C(=O)Nc3ccc(C(=O)O)cc3)C2)ccc1Cl (configuration not stated)	i	0.46
COc1ccc(CNC(=O)Cc2cn(C)c3ccccc23)c(OC)c1	i	0.02
O=C(Nc1cccc(S(=O)(=O)N2CCCCC2)c1)c1c2c(nc3ccccc13)CCN(Cc1ccccc1)C2	i	-0.92
Cc1nc2cc(C(=O)N3CCc4ccccc43)ccc2n1-c1ccc(F)c(F)c1	i	2.07
CCOC(=O)c1c(NC2=NS(=O)(=O)c3ccccc32)sc2c1CCC(C)C2 (configuration not stated)	i	0.4
CCn1c(C(C)NC(=O)c2ccc(Cl)cc2)n[nH]c1=S (configuration not stated)	i	0.56
CCOc1cccc(/C=N/N2C(C)CCCC2C)c1O (configuration not stated)	i	0.43
O=C(C1=C[C@@H](C2CCCCC2)C[C@@H](OCc2ccc(CO)cc2)O1)N1CCN(Cc2ccc3c(c2)OCO3)CC1	i	0.43
O=C(Oc1c(Br)cc([N+](=O)[O-])cc1Br)c1cccnc1	i	1.81
CCOc1ccc(N(C)S(=O)(=O)c2ccc3[nH]cc(C(=O)NCCOC)c(=O)c3c2)cc1	i	-1.31
Cc1ccc(C(=O)N2CCC3(CC2)Oc2ccc(Cl)cc2C(=O)C32CC(c3ccc(Cl)cc3)=NO2)s1 (configuration not stated)	i	0.42
CC(C)C1CC(c2ccccc2)(C(CN)CO)CCO1 (configuration not stated)	i	-2.09
COC(=O)[C@@]12CCCN1[C@H](c1ccc(-c3ccc(OC)cc3)c(OC)c1)[C@H]1C(=O)N(C)C(=O)[C@H]12	i	0.43
O=C1CC(c2ccco2)CC(O)=C1C=Nc1cc(Cl)cc(Cl)c1 (configuration not stated)	i	0.78

(further entries)
Compound | KCNQ2 block | KCNQ2 block baseline
COc1ccc(-n2cc(-c3ccccc3)[n+]3c2CCCCC3)cc1 | i | -2.3
O=C(NCc1ccc2c(c1)OCO2)c1ccco1 | i | -0.76
CCOc1ccc(NC(=O)C/C(C)=N/NC(=O)COc2ccc(Br)cc2C)cc1 | i | 0.02
Cn1cnnc1SCC(=O)Nc1ccccc1F | i | 0.49
Cn1c(-c2nnn(-c3ccc(F)cc3)n2)cc2ccccc21 | i | 0.02
CCCCNC(=O)c1cc2c(=O)n3cccc(C)c3nc2s1 | i | -1.44
O=C1CCCN2N=C(SCC(=O)Nc3ccc(Br)cc3)SC2=N1 | i | -1.4
Cc1cc(C)nc(NN2C(=O)/C(=C/c3ccccc3)SC2=S)n1 | i | 1.39
CN(Cc1c(C(=O)N/N=C/c2ccccc2)nnn1-c1nonc1N)c1ccccc1 | i | 0.41
COc1ccc(Cl)cc1N(C(C)=O)c1nc(C)cc(C)c1C#N | i | -0.43
O=C(CCc1ccccc1)c1nnc(-c2ccccc2)o1 | i | -0.15
Cc1cc(C)n2nnnc2n1 | i | 0.55
O=C(O)C(Cc1c[nH]c2ccccc12)N1C(=O)c2ccccc2C1=O (configuration not stated) | i | 1.66
CCCCn1nnnc1SCC(=O)c1cc(Cl)ccc1OC | i | -3.62
O=C(Nc1cccnc1)c1cccnc1Cl | i | -0.73
O=C(N/N=C/c1ccc(O)cc1)Nc1cccc2nsnc12 | i | -0.08

6 consecutive records out of the list so far, quoted:
Compound | KCNQ2 block | KCNQ2 block baseline
Cc1cc(C)nc(NN2C(=O)/C(=C/c3ccccc3)SC2=S)n1 | i | 1.39
CN(Cc1c(C(=O)N/N=C/c2ccccc2)nnn1-c1nonc1N)c1ccccc1 | i | 0.41
COc1ccc(Cl)cc1N(C(C)=O)c1nc(C)cc(C)c1C#N | i | -0.43
O=C(CCc1ccccc1)c1nnc(-c2ccccc2)o1 | i | -0.15
Cc1cc(C)n2nnnc2n1 | i | 0.55
O=C(O)C(Cc1c[nH]c2ccccc12)N1C(=O)c2ccccc2C1=O (configuration not stated) | i | 1.66

New compounds follow.
Compound | KCNQ2 block | KCNQ2 block baseline
NC(=S)N=Nc1c(O)n(Cc2ccc(F)cc2)c2ccccc12 | i | 2.43
Cc1ccc2nc3n(c(=O)c2c1)CCCCC3 | i | 1.11
Cc1ccccc1NC(C)C(=O)N/N=C/c1ccccc1OCc1cccc(Br)c1 (configuration not stated) | -8.28* | 2.26*
CCC(c1nnnn1CCc1ccccc1)N1CCN(c2ccc(OC)cc2)CC1 (configuration not stated) | i | -1.56
CCc1ccc2oc(=O)cc(CN3CCCCC3)c2c1 | i | -0.21
O=C(O)CCCN1C(=O)/C(=C/c2cn(-c3ccccc3)nc2-c2cccs2)SC1=S | i | 1.12
CCCCC1(Cc2ccc(OC)c([N+](=O)[O-])c2)C(=O)N(c2ccccc2)N(c2ccccc2)C1=O | i | 0.87
COc1ccccc1NC(=O)Cn1nnc(C(=O)NCc2cccs2)c1N | i | 1.84
CC(=O)N/C(=C\c1ccccc1)C(=O)OCC(=O)N(C)C1CCCCC1 | i | -0.74
CCC1(c2ccccc2)NC(=O)N(CC(=O)Nc2ccc(N3CCCC3)cc2C)C1=O (configuration not stated) | i | -1.07
CC1CCc2[nH]c3ccc(C(=O)N(C)CC(=O)Nc4cccc(F)c4)cc3c2C1 (configuration not stated) | i | -0.24
CC1(C(=O)NCCCN2CCOCC2)Oc2cccnc2NC1=O (configuration not stated) | i | 0.59
COc1cccc(NC(=O)[C@H](CC(C)C)NC(=O)[C@@H]2Cc3ccccc3CN2)c1 | i | -0.49
COc1cc(OC)c(OC)cc1CN1CCN(Cc2ccco2)CC1 | i | 1.28
Cc1cccc(C(=O)NNC2=CC(=O)CC(C)(C)C2)c1O | i | 0.7
COc1cc(OC)c(C2SCCN2S(=O)(=O)c2ccc(F)cc2)cc1OC (configuration not stated) | i | 1.13
COc1ccc(C(=O)NC2CC2)cc1OC1CCN(C(C)CSC)CC1 (configuration not stated) | i | -2.03
Cc1ccc(C2=Nc3ccccc3N=C(C(Cl)Cl)C2)cc1 | i | 0.19
CN(c1ccc(O)cc1)c1nc(-c2cccs2)cs1 | i | -0.63
O=C(c1cc([N+](=O)[O-])ccc1N1CCCCC1)N1CCc2ccccc21 | i | -0.88
Cc1ccc2nc(Cl)nc(-c3ccccc3)c2c1 | i | 0.37
C[C@@H](NC(=O)CN1C(=O)c2ccccc2S1(=O)=O)c1ccccc1 | i | -0.78
S=C(NCCCc1ccccc1)NCc1ccccc1 | i | -1.91
CCCN(CC(=O)Nc1ccc(Cl)cc1Cl)C(=O)/C=C/c1ccco1 | i | 1.09

2 compounds picked at random from those above, as already listed:
Compound | KCNQ2 block | KCNQ2 block baseline
Cc1ccc(C2=Nc3ccccc3N=C(C(Cl)Cl)C2)cc1 | i | 0.19
O=C(c1cc([N+](=O)[O-])ccc1N1CCCCC1)N1CCc2ccccc21 | i | -0.88

Later entries:
Compound | KCNQ2 block | KCNQ2 block baseline
CCOc1cccc(=O)c2c(C)oc(C)c12 | i | 0.46
O=C(CCN1C(=O)c2ccccc2C1=O)Nc1cccc(S(=O)(=O)N2CCCCC2)c1 | i | 0.68
Cn1c(Cn2cnc3ccccc32)nc2ccccc21 | i | 2.64
COc1ccc(CNC(=O)COC(=O)c2ccc(Br)cc2)cc1 | i | -0.05
COC(=O)c1cc2occc2n1CC(=O)Nc1cc(OC)cc(OC)c1 | i | -0.52
CCOC(=O)N1CCN(c2c(N3CCN(c4ccccc4F)CC3)c(=O)c2=O)CC1 | i | -0.48
C=CCn1c(SCCCC)nc(O)cc1=O | i | -0.12&0.02
COC(=O)C1=C(Nc2ccc(OC)cc2)C=C(C)C(C(=O)OC)C1c1ccc(C)cc1 (configuration not stated) | i | -0.01
COc1ccccc1C(=O)NCCNc1ccc([N+](=O)[O-])cc1Cl | i | 0.42
CCc1ccc(OCC(=O)N(C)C)c(Br)c1 | i | 0.09
Cc1nc(N)[nH]c(=O)c1CC(=O)OCCCl | i | -0.98
Cc1nn(-c2ccc(F)cc2)c(C)c1NS(=O)(=O)c1ccc(Cl)cc1 | i | -4.27
O=C(Nc1cccn(Cc2c(Cl)cccc2Cl)c1=O)c1ccccc1Cl | i | -0.68
CN(CC(=O)Nc1cccc(F)c1)C(=O)c1ccc(N2CCCCCC2)c([N+](=O)[O-])c1 | i | -1.74
COc1ccc(-c2nsc3c(N4CCCCC4)ncnc23)cc1 | i | 1.74
O=C(CN1C(=O)C2C3C=CC(C4CC34)C2C1=O)OCC(=O)c1ccccc1 (configuration not stated) | i | 0.95
CC(C)c1ncc(C(O)c2ccccc2)n1C (configuration not stated) | i | 2.88
Cc1c(C(c2ccc(F)cc2)c2c(C)n(C)n(-c3ccccc3)c2=O)c(=O)n(-c2ccccc2)n1C | i | 1.34
O=C(CN1C(=O)NC2(CCCCC2)C1=O)Nc1nc2c(F)cc(F)cc2s1 | i | -1.6
CCN(CC)C(=O)c1sc(NC(=O)Cc2ccc(OC)cc2)c(C#N)c1C | i | -1.75
COc1ccc(CCNC(=O)CNS(=O)(=O)c2ccc(N(C)C)c([N+](=O)[O-])c2)cc1OC | i | 3.9
COc1ccc2ccccc2c1CN1CCN(Cc2ccccc2)CC1 | i | -0.69
CC(=O)Nc1ccccc1C(=O)N1CCN(Cc2ccc3c(c2)OCO3)CC1 | i | -0.4
CN1CCN(S(=O)(=O)c2ccc(NC(=O)c3csc4ccccc34)cc2)CC1 | i | -0.01
Cc1ccc(Cl)c(OCC(=O)Nc2sc(C)c(C)c2C#N)c1 | i | -1.92
CN(Cc1cnccn1)C(=O)C1CCC(=O)N(CCc2ccccc2)C1 (configuration not stated) | i | -2.07
COc1ccc(N(CC(=O)NN=C2CCCC2)S(=O)(=O)c2ccccc2)cc1Cl | i | 0.66
Cc1nc2ccccc2c(=O)n1/N=C/c1ccc(O)c(O)c1O | i | -0.83
Cc1ccn2cc(CNC(=O)c3ccc(Br)o3)nc2c1 | i | -0.43
CC(CN1CCCC1)OC(=O)Cc1ccc(Cl)cc1 (configuration not stated) | i | 0.9
CCSc1nnc(NC(=O)C2Cc3ccccc3CN2C(=O)c2ccco2)s1 (configuration not stated) | i | -1.11
CC1(C)Cc2c(C#N)c(N)sc(=S)c2CO1 | i | -1.51
Cc1ccc(C)c(-n2nnnc2SCC(=O)c2ccc3c(c2)NC(=O)CO3)c1 | i | 0.02

Only part of the results is shown, so the mix of outcomes need not match the whole.
